Vaccinia stage = blocks a specific stage of Vaccinia orthopoxvirus infection; Vaccinia-infected cells, mCherry/Venus stage reporter fluorescence; stronger effect = lower value; some inactives read as strong as hits; activity change (mCherry), % (no concentration beside the values); 89,000 tested, 0.01% active; AID 1053133;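 active = mCherry past -33% and 40 or more points under the early reporter, replicates agreeing; inconclusive = past -33% without that gap or agreement; tested in A549 cells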;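 also: scaled between vehicle wells and reference inhibitor wells; 23 nL library stock went into each well; one replicate is shown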
Vaccinia stage Venus = further read-out of Vaccinia stage, marked with its call; activity change (Venus), %; measured here: Venus reporter, other viral stage;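 negative = less Venus signal; first of two replicates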
An asterisk follows results filed as active; ? = inconclusive; nt = not tested or not shown; & = joins results of further samples.

nr	compound	Vaccinia stage	Vaccinia stage Venus
1	Cc1ccc(S(=O)(=O)N(C)C[C@H]2Oc3ccc(NC(=O)Nc4ccc5c(c4)OCO5)cc3C(=O)N([C@@H](C)CO)C[C@H]2C)cc1	3	-2
2	CC=Cc1ccc2n(c1=O)C[C@H]1[C@H](CO)[C@@H](C(=O)NC3Cc4ccccc4C3)N(CC)[C@@H]21 (mixture of isomers)	1	12
3	C[C@@H]1CN([C@H](C)CO)C(=O)c2cc(-c3cccc(C#N)c3)cnc2O[C@H]1CN(C)Cc1ccccc1	0	1
4	C[C@H](CO)N1C[C@H](C)[C@@H](CN(C)S(=O)(=O)c2cn(C)cn2)Oc2ncc(Br)cc2C1=O	21	13
5	C[C@H](CO)N1C[C@H](C)[C@H](CN(C)Cc2ccc(Cl)c(Cl)c2)Oc2c(NS(=O)(=O)c3ccc(Cl)cc3)cccc2C1=O	?	nt
6	CC=Cc1ccc2n(c1=O)C[C@H]1[C@H](CO)[C@@H](C(=O)N(C)C)[C@@H]2N1CCc1ccccc1 (mixture of isomers)	0	7
7	Cc1noc(C)c1S(=O)(=O)N(C)C[C@H]1Oc2ccc(NC(=O)Nc3cccc4ccccc34)cc2CC(=O)N([C@@H](C)CO)C[C@H]1C	0	10
8	CCNC(=O)[C@@H]1[C@@H](CO)[C@@H]2Cn3c(ccc(C4=CCCCC4)c3=O)[C@@H]2N1Cc1ccccc1F	3	-4
9	CCNC(=O)C[C@H]1CC[C@@H]2[C@H](COc3ccc(NC(=O)c4ccc(F)c(F)c4)cc3C(=O)N2C)O1	19	21
10	Cc1ccc(S(=O)(=O)N[C@@H]2CC[C@H](CCNC(=O)C3CCCC3)O[C@H]2CO)cc1	-6	19
11	Cc1noc(C)c1S(=O)(=O)Nc1ccc2c(c1)C(=O)N([C@@H](C)CO)C[C@H](C)[C@@H](CN(C)S(=O)(=O)c1ccc(F)cc1)OCCCC[C@@H](C)O2	-5	-10
12	CO[C@@H]1CN(C)C(=O)c2ccc(NC(=O)c3ccccn3)cc2OC[C@@H](C)N(C(=O)C2CCCC2)C[C@H]1C	-7	-3
13	C[C@H]1CN([C@@H](C)CO)C(=O)Cc2cc(NC(=O)c3ccncc3)ccc2O[C@@H]1CN(C)Cc1ccc(C(=O)O)cc1	17	3
14	C[C@@H]1CN([C@H](C)CO)C(=O)c2cc(NC(=O)C3CC3)ccc2O[C@H]1CN(C)C(=O)Nc1ccc(F)cc1	15	12
15	O=C(Nc1ccc(F)cc1)N1C[C@@H]2[C@H](c3ccccc31)[C@@H](CO)N2C(=O)Cc1ccccc1	0	1
16	O=C(C[C@H]1CC[C@H](NC(=O)c2ccncc2)[C@@H](CO)O1)NCC1CC1	5	5
17	COc1ccc(NC(=O)N2CC(=O)N3[C@H](CO)[C@@H](c4ccc(Br)cc4)[C@H]3C2)cc1	-2	7
18	COc1cccc(C(=O)Nc2ccc3c(c2)OC[C@H](C)N(C)C[C@H](C)[C@@H](OC)CN(C)C3=O)c1	-2	2
19	C[C@@H]1CN([C@@H](C)CO)C(=O)c2cc(C#CC3(O)CCCC3)cnc2O[C@H]1CN(C)C(=O)Nc1ccc2c(c1)OCO2	-10	-10
20	CCNC(=O)[C@@H]1[C@@H](CO)[C@@H]2Cn3c(ccc(-c4cncnc4)c3=O)[C@@H]2N1Cc1ccc2c(c1)OCO2	9	7
21	O=C(CCN1CCCCC1)N[C@H]1CC[C@@H](CCn2cc(-c3cccc(F)c3)nn2)O[C@@H]1CO	10	6
22	COc1ccccc1CN1C[C@@H]2N[C@H](C1)[C@@H]2c1ccc(-c2cccnc2)cc1	?	nt
23	O=C(Nc1cccc(F)c1)N1CC(=O)N2[C@H](CO)[C@@H](c3ccc(C#Cc4cccnc4)cc3)[C@@H]2C1	-14	-12
24	CC=Cc1ccc2n(c1=O)C[C@@H]1[C@@H](CO)[C@H](C(=O)NCCc3cn(C)cn3)N(C(=O)C3CC3)[C@H]21 (mixture of isomers)	9	1
25	O=C(Cc1ccncc1)Nc1ccc2c(c1)[C@@H]1C[C@H](CC(=O)N3CCCCC3)O[C@@H](CO)[C@@H]1O2	11	7
26	COc1cccc(S(=O)(=O)N[C@H]2CC[C@H](CCn3cc(-c4ccc(F)cc4)nn3)O[C@@H]2CO)c1	-22	-15
27	CO[C@@H](C(=O)N(C)C[C@@H]1OCc2ccccc2-c2ccccc2C(=O)N([C@@H](C)CO)C[C@H]1C)c1ccccc1	-3	-1
28	CO[C@@H]1CN(C)C(=O)c2cc(NC(C)=O)ccc2OC[C@@H](C)N(C(=O)C2CCOCC2)C[C@@H]1C	24	15
29	C[C@@H]1CCCCO[C@@H](CN(C)S(C)(=O)=O)[C@H](C)CN([C@H](C)CO)C(=O)c2cc(NC(=O)Nc3cccc4ccccc34)ccc2O1	6	6
30	COc1cccc(-c2ccc(C3[C@H]4CNC[C@@H]3N4C(=O)Nc3ccccc3OC)cc2)c1 (some centres undefined)	-29&-12	-32&-18

Single records, from the list above. Order of values: Vaccinia stage | Vaccinia stage Venus
Profile of C[C@@H]1CN([C@@H](C)CO)C(=O)c2cc(C#CC3(O)CCCC3)cnc2O[C@H]1CN(C)C(=O)Nc1ccc2c(c1)OCO2 : -10 | -10
Profile of COc1cccc(C(=O)Nc2ccc3c(c2)OC[C@H](C)N(C)C[C@H](C)[C@@H](OC)CN(C)C3=O)c1 : -2 | 2

Retrieved by compound from above (2):
nr	compound	Vaccinia stage	Vaccinia stage Venus
9	CCNC(=O)C[C@H]1CC[C@@H]2[C@H](COc3ccc(NC(=O)c4ccc(F)c(F)c4)cc3C(=O)N2C)O1	19	21
24	CC=Cc1ccc2n(c1=O)C[C@@H]1[C@@H](CO)[C@H](C(=O)NCCc3cn(C)cn3)N(C(=O)C3CC3)[C@H]21 (mixture of isomers)	9	1

Next compounds.
nr	compound	Vaccinia stage	Vaccinia stage Venus
31	Cc1noc(C)c1S(=O)(=O)Nc1ccc2c(c1)C(=O)N([C@@H](C)CO)C[C@H](C)[C@@H](CN(C)Cc1ccc(C(F)(F)F)cc1)O2	-15	-9
32	C[C@H]1CN([C@@H](C)CO)C(=O)c2cc(Br)cnc2O[C@H]1CN(C)C(=O)Nc1ccccc1	14	14
33	CO[C@@H]1CN(C)C(=O)c2cc(NC(=O)c3cccc(F)c3)ccc2OC[C@H](C)N(CC2CC2)C[C@H]1C	-2	1
34	O=C(NCC[C@H]1CC[C@H](NS(=O)(=O)c2ccc(F)cc2)[C@@H](CO)O1)Nc1ccc(F)cc1	-14	-6
35	O=C(C[C@@H]1C=C[C@@H](NC(=O)C2CCC2)[C@@H](CO)O1)NCCCN1CCOCC1	-5	-8
36	COCC(=O)N1C[C@H](C)[C@@H](OC)CN(C)C(=O)c2cc(NC(=O)Nc3ccccc3)ccc2OC[C@@H]1C	6	8
37	C[C@H](CO)N1C[C@H](C)[C@H](CN(C)C)OCCCC[C@H](C)Oc2ccc(NS(=O)(=O)c3cccs3)cc2C1=O	10	4
38	O=C(NC1CCCC1)[C@H]1[C@H](CO)[C@H]2Cn3c(cccc3=O)[C@@H]1N2C(=O)CC1CC1	7	11
39	COC(=O)[C@@H]1N=C(c2ccc(OCCCO)cc2)O[C@@H]1c1ccccc1N=[N+]=[N-]	-10	8
40	C[C@H](O)C#Cc1cnc2c(c1)C(=O)N([C@@H](C)CO)C[C@@H](C)[C@H](CN(C)CC1CCOCC1)O2	5	2
41	CC(C)C#Cc1ccc([C@H]2[C@@H](CO)N3C(=O)CN(C(=O)c4ccccn4)C[C@H]23)cc1	-10	-7
42	O=C(CN1CCOCC1)N1CCCCN2[C@@H](CO)[C@H](c3ccc(C#Cc4ccccc4)cc3)[C@@H]2C1	?	nt
43	COc1ccc(NC(=O)Nc2ccc3c(c2)C(=O)N([C@@H](C)CO)C[C@H](C)[C@@H](CN(C)CC2CCCCC2)O3)cc1	-13	-8
44	COc1ccc(NC(=O)N(C)C[C@H]2OCCCC[C@H](C)Oc3ccc(NC(=O)Nc4ccc(F)cc4)cc3C(=O)N([C@@H](C)CO)C[C@H]2C)cc1	7	13
45	Cc1noc(C)c1S(=O)(=O)Nc1ccc2c(c1)CC(=O)N([C@@H](C)CO)C[C@@H](C)[C@@H](CN(C)Cc1ccc(Cl)c(Cl)c1)O2	?	nt
46	Cc1ccc(-c2cnc3c(c2)C(=O)N([C@@H](C)CO)C[C@H](C)[C@@H](CN(C)C(=O)c2ccccc2)O3)cc1	-6	9
47	Cc1cc(C(=O)Nc2cccc3c2O[C@@H](CN(C)C(=O)Nc2ccc(F)cc2)[C@@H](C)CN([C@@H](C)CO)C3=O)n(C)n1	4	-3
48	COCC(=O)Nc1ccc2c(c1)OC[C@H](C)N(CCc1ccccc1)C[C@@H](C)[C@H](OC)CN(C)C2=O	-6	-10
49	O=C(N[C@H]1CC[C@H](CCNS(=O)(=O)c2ccc(F)cc2)O[C@@H]1CO)c1cnccn1	-5	10
50	CCN(C[C@@H]1N[C@H](CO)[C@H]1c1ccccc1)C(=O)c1ccncc1	11	14
51	COCC(=O)N1[C@H](C(=O)N2CCOCC2)[C@@H](CO)[C@@H]2Cn3c(ccc(C4=CCCCC4)c3=O)[C@@H]21	-2	3
52	C[C@@H](O)C#Cc1ccc([C@@H]2[C@H](CO)N3CCCCN(C(=O)c4cccc(F)c4)C[C@@H]23)cc1	23	14
53	C[C@@H]1CCCCO[C@@H](CN(C)C(=O)Cc2ccccc2)[C@H](C)CN([C@@H](C)CO)C(=O)c2cc(NC(=O)Nc3cccc4ccccc34)ccc2O1	-3	11
54	CCCC(=O)N1CCC2(CC1)CN[C@H](CO)c1[nH]c3cc(OC)ccc3c12	17	11
55	O=C(C[C@@H]1C[C@H]2c3cc(NC(=O)C4CCOCC4)ccc3O[C@H]2[C@H](CO)O1)NCc1ccccc1F	12	15
56	COc1ccccc1-c1ccc2c(c1)O[C@H](CN(C)C(=O)c1ccncc1)[C@H](C)CN([C@@H](C)CO)S2(=O)=O	14	13
57	CN(C)C(=O)C[C@@H]1C[C@@H]2c3cc(NC(=O)NC4CCCCC4)ccc3O[C@@H]2[C@H](CO)O1	9	12
58	CN1C(=O)c2cc(NC(=O)C3CC3)ccc2OC[C@@H]2O[C@@H](CC(=O)NCC3CCCCC3)CC[C@H]21	-8	-6
59	C[C@H](CO)N1C[C@H](C)[C@H](CN(C)CC2CCOCC2)Oc2ncc(C3=CCCCC3)cc2C1=O	-4	-10
60	C[C@@H]1CN([C@H](C)CO)C(=O)c2cc(NS(=O)(=O)c3ccc(Cl)cc3)ccc2O[C@@H](C)CCCCO[C@@H]1CN(C)C(=O)NC1CCCCC1	-12	-14

Grouped by structure: the compounds so far with bromine
nr	compound	Vaccinia stage	Vaccinia stage Venus
4	C[C@H](CO)N1C[C@H](C)[C@@H](CN(C)S(=O)(=O)c2cn(C)cn2)Oc2ncc(Br)cc2C1=O	21	13
17	COc1ccc(NC(=O)N2CC(=O)N3[C@H](CO)[C@@H](c4ccc(Br)cc4)[C@H]3C2)cc1	-2	7
32	C[C@H]1CN([C@@H](C)CO)C(=O)c2cc(Br)cnc2O[C@H]1CN(C)C(=O)Nc1ccccc1	14	14

Going on with the list.
nr	compound	Vaccinia stage	Vaccinia stage Venus
61	C[C@H](CO)N1C[C@H](C)[C@@H](CN(C)Cc2ccc(C(=O)O)cc2)Oc2c(NC(=O)C3CCOCC3)cccc2C1=O	5	0
62	COc1ccc(-c2cn(CC[C@H]3CC[C@H](NC(=O)Cc4ccccn4)[C@@H](CO)O3)nn2)cc1	5	10
63	CO[C@H](C(=O)N(C)C[C@H]1OCc2ccccc2-c2c(n(C)c3ccccc23)C(=O)N([C@@H](C)CO)C[C@@H]1C)c1ccccc1	-24	-27
64	C[C@@H]1CN([C@H](C)CO)C(=O)c2cc(NC(=O)Cn3cnnn3)ccc2O[C@@H]1CN(C)C(=O)Nc1cccc2ccccc12	-1	0
65	CC(C)NC(=O)N(C)C[C@@H]1OCCCC[C@H](C)Oc2ccc(NS(=O)(=O)c3cn(C)cn3)cc2C(=O)N([C@H](C)CO)C[C@@H]1C	23	21
66	C[C@@H]1CCCCO[C@@H](CN(C)CC2CC2)[C@H](C)CN([C@@H](C)CO)C(=O)c2cc(NS(=O)(=O)c3ccc(Cl)cc3)ccc2O1	-26	-16
67	C[C@H]1CN([C@@H](C)CO)C(=O)c2cccc(NS(C)(=O)=O)c2O[C@@H]1CN(C)Cc1ccc(Oc2ccccc2)cc1	16	7
68	C[C@@H]1CN([C@H](C)CO)C(=O)c2cc(NC(=O)Nc3ccc(F)cc3)ccc2O[C@@H]1CN(C)Cc1ccc(Oc2ccccc2)cc1	?	nt
69	CCS(=O)(=O)Nc1ccc2c(c1)C(=O)N(C)[C@H]1CC[C@@H](CC(=O)NCCOC)O[C@H]1CO2	13	20
70	COCC#Cc1ccc([C@@H]2[C@@H](C#N)N(C(=O)NC3CCCC3)[C@@H]2CO)cc1	11	4
71	COc1ccc(-c2ccccc2[C@@H]2[C@@H](C#N)N(C(=O)NC3CCCC3)[C@H]2CO)cc1	-22	-18
72	C[C@H](CO)N1C[C@H](C)[C@@H](CN(C)S(C)(=O)=O)Oc2cc(C#Cc3ccc(F)cc3)ccc2S1(=O)=O	?	nt
73	C[C@H](CO)N1C[C@H](C)[C@@H](CN(C)C(=O)c2ccncc2)OCc2cnnn2CCCC1=O	13&9	12&8
74	CCCNC(=O)N1[C@H](C#N)[C@H](c2ccccc2C2=CCCC2)[C@@H]1CO	10	11
75	C[C@H]1CN([C@@H](C)CO)C(=O)Cc2cc(NS(=O)(=O)c3ccc(Cl)cc3)ccc2O[C@@H]1CN(C)C(=O)Nc1ccccc1	2	0
76	COc1cccc(C(=O)Nc2ccc3c(c2)C(=O)N(C)C[C@H](OC)[C@H](C)CN(C(C)=O)[C@@H](C)CO3)c1	5	3
77	COc1ccc(NC(=O)Nc2cccc3c2O[C@H](CN(C)Cc2ccc(C(F)(F)F)cc2)[C@H](C)CN([C@H](C)CO)C3=O)cc1	-1	-4
78	C#Cc1ccc([C@H]2C=C(C(=O)Nc3ccccc3)O[C@@H](OCCCCO)C2)cc1	15	10

Bioassay records as filed in PubChem BioAssay.

This is a subset; rates above refer to the full screens.
